# Mtb growth: Mycobacterium tuberculosis H37Rv growth inhibition, cell based, confirmatory dose response (AID 1949); most inactive calls were filed without a number and no value below 0 was filed; actives 1.6% (n = 100,000); inhibition, % at 10 µg/mL, or IC50 in µg/mL where a hit was titrated;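 active = confirmed in a dose series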;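 also: bacteria grown 7 days with compound before Alamar blue readout; 0% = untreated bacteria and 100% = reference antibiotic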
# * = called active by the depositor; i = inactive.
no.	Molecule	Mtb growth
1	COc1c(Cl)cc(Cl)cc1C(=O)NC(=S)Nc1ccc(N2CCC(C)CC2)cc1	i
2	Cc1ccc(C(=O)Nc2c(F)c(F)c(F)c(F)c2F)cc1C	i
3	Cc1ccccc1NC(=S)NCc1ccccc1	1%
4	Cn1c(SCc2nc3ccccc3[nH]2)nnc1-c1cccc(NC(=O)c2ccccc2)c1	i
5	COc1ccccc1C1C(C(=O)c2cccs2)=C(O)C(=O)N1c1nc(C)c(C)s1 (stereo unspecified)	i
6	CCc1cccc(C)c1NC(=O)CSc1nnc(-c2ccccc2)n1-c1ccccc1	3%
7	O=C(CSc1ncnc2sc3c(c12)CCC3)N1CCCC1	1%
8	Cc1ccc(C(=O)N2CCc3ccccc32)c(Cl)c1	6%
9	COc1ccc(-c2nc(C#N)c(NCCc3ccccc3)o2)cc1	i
10	Cc1cc2c(=O)n(Cc3ccco3)c(SCC(=O)N3CCc4ccccc4C3)nc2s1	1%
11	COC(=O)c1cc(OC)c(OC)cc1NC(=O)c1cccc(Cl)c1	4%
12	CCN(CC)S(=O)(=O)c1ccc(Cl)c(C(=O)NCc2ccco2)c1	i
13	CCCCOc1cccc(C(=O)Nc2ccc(S(=O)(=O)Nc3nnc(CC)s3)cc2)c1	2%
14	CCN1CCN(C(=S)c2ccc(OCC(=O)NCc3ccccc3)cc2)CC1	6%
15	Cc1cnc(NC(=O)CN2C(=O)c3ccccc3C2=O)s1	i
16	COCc1cc(=O)[nH]c(SCC(=O)Nc2ccc(C(=O)OC)cc2)n1	i
17	Cc1cc(Br)c(C(C)C)c(OCC(=O)N=Nc2c(O)n(C)c3c(C)cccc23)c1Br	i
18	CCCOc1ccc(-c2c(=O)n(O)c3ccccc3[n+]2[O-])cc1	i
19	O=C(NCc1ccccn1)c1ccc(CNS(=O)(=O)c2cccc(C(F)(F)F)c2)cc1	i
20	CCOC(=O)c1c(NC(=O)c2cccc(N3C(=O)CCC3=O)c2)sc(C)c1C	i

# Of the compounds above, these contain four or more nitrogen atoms:
no.	Molecule	Mtb growth
4	Cn1c(SCc2nc3ccccc3[nH]2)nnc1-c1cccc(NC(=O)c2ccccc2)c1	i
6	CCc1cccc(C)c1NC(=O)CSc1nnc(-c2ccccc2)n1-c1ccccc1	3%
13	CCCCOc1cccc(C(=O)Nc2ccc(S(=O)(=O)Nc3nnc(CC)s3)cc2)c1	2%

# Following part
no.	Molecule	Mtb growth
21	Cc1ccccc1C(=O)Nc1ccccc1C(=O)NCc1ccccc1	i
22	CCOC(=O)COc1ccc2cc(C(=O)OCC)c(=O)oc2c1	18%
23	CC(C)CN(CC(C)C)S(=O)(=O)c1ccc(Cl)cc1	1%
24	COc1ccc(S(=O)(=O)Nc2nnc(C(C)C)s2)cc1	i
25	Cc1ccc(NS(=O)(=O)c2ccc(Br)s2)cc1S(=O)(=O)N1CCOCC1	i
26	Cc1nc(N)sc1-c1nnc(SCC(=O)Nc2nccs2)n1C	i
27	CCc1ccc(N(CC(=O)Nc2ccccc2CC)S(C)(=O)=O)cc1	3%
28	O=C(CN1C(=O)c2ccccc2C1=O)Oc1ccc(I)cc1	i
29	O=S(=O)(Nc1ncccn1)c1ccc(NC(=S)Nc2ccc(I)cc2)cc1	i
30	CC(C)(C)C(=O)CC1(O)C(=O)N(Cc2ccccc2)c2ccccc21 (stereo unspecified)	i
31	COc1cc(S(=O)(=O)Nc2ccc(NC(C)=O)cc2)ccc1F	3%
32	Fc1ccc(CN2CCN(Cc3ccccn3)CC2)cc1	i
33	CCc1cccc(CC)c1NC(=O)CN(C)S(=O)(=O)c1ccc(OC)c(C)c1	2%
34	CCn1c(SCC(N)=O)nnc1-c1ccc2[nH]c(C)c(C)c2c1	i
35	Cc1ccc(C(=O)Nc2cc(C#N)c3[nH]c4ccccc4n3c2=O)cc1	6.5µg/mL*
36	CC(C)C(=O)N1CCN(c2ccc(NC(=O)c3ncn[nH]3)cc2)CC1	0%
37	COc1ccc(C)c(N2C(=O)CC(N3CCC(C(N)=O)CC3)C2=O)c1 (stereo unspecified)	i
38	COc1cc(NC(=O)c2cccs2)ccc1NC(=O)c1ccccc1	16%
39	O=C1c2ccc3c4c(ccc(c24)C(=O)N1c1ccccc1)C(=O)N(c1ccccc1)C3=O	3%
40	O=C(Nc1nncs1)c1ccc(F)cc1	1%

# (listing goes on)
no.	Molecule	Mtb growth
41	Cc1cc(NS(=O)(=O)c2ccccc2)ccc1NS(=O)(=O)c1ccccc1	i
42	Nc1ccc2nc(SCC(=O)Nc3cccc(Cl)c3)sc2c1	i
43	COC(=O)c1cc(C(=O)NCCc2ccccc2)cc([N+](=O)[O-])c1	i
44	CCCc1c(C)nc(SCC(C)C)[nH]c1=O	11%
45	COc1ccc(Cl)cc1S(=O)(=O)NCc1ccccc1	i
46	O=C(Nc1ccc2c(c1)C(=O)NC2=O)c1ccc(-c2ccccc2)cc1	i
47	Cc1cc(C)c(NC(=O)c2c(-c3c(Cl)cccc3Cl)noc2C)c(C)c1	i
48	FC(F)(F)c1nc2ccccc2n1CCOc1ccc(Cl)cc1	2%
49	CCOC(=O)C1CCN(S(=O)(=O)c2ccc3c(c2)OCCO3)CC1	i
50	O=C(NCCc1ccncc1)Nc1ccccc1	1%
51	CCN(CC)CCCNC(=O)Cc1ccccc1OC	i
52	CCOCCc1nnc(NC(=O)c2ccccc2Oc2ccccc2)s1	i
53	CNC(=O)CN(c1ccc(Oc2ccccc2)cc1)S(=O)(=O)c1ccc(C)cc1	3%
54	CC(=O)Oc1c2occc2cc2ccc(=O)oc12	i
55	Cc1nnc(SCC(=O)N=C2NC(=O)CS2)s1	i
56	c1ccc(Cc2nc(-c3cccnc3)no2)cc1	i
57	O=C(Nc1cnccn1)c1cccc(C(F)(F)F)c1	0%
58	COc1cccc(-c2cc(C(=O)NCCCN(C)C)c3ccccc3n2)c1	i
59	CCNc1nc(OCCNC(=O)Nc2ccccc2)nc(N(C)C)n1	i
60	CCN(CC)CCN(C)C(=O)Nc1ccc(NC(=O)N(C)CCN(CC)CC)cc1	i

# Given field by field: four of the compounds above.
50	O=C(NCCc1ccncc1)Nc1ccccc1
- Mtb growth = 1%

51	CCN(CC)CCCNC(=O)Cc1ccccc1OC
- Mtb growth = i

52	CCOCCc1nnc(NC(=O)c2ccccc2Oc2ccccc2)s1
- Mtb growth = i

53	CNC(=O)CN(c1ccc(Oc2ccccc2)cc1)S(=O)(=O)c1ccc(C)cc1
- Mtb growth = 3%

# More results follow:
no.	Molecule	Mtb growth
61	O=Cc1ccccc1OCC(=O)NCCc1ccccc1	i
62	O=C(Oc1ccc(F)cc1)c1ccc(Oc2ccc([N+](=O)[O-])cc2)cc1	1.1µg/mL*
63	CCC(CO)NC(=O)C(=O)Nc1cccc(Cl)c1Cl (stereo unspecified)	i
64	COC(=O)CSc1nc(N2CCCCC2)c2c(c1C#N)CCCC2	0.17µg/mL*
65	O=C(CCC(=O)Nc1ccc(Cl)cc1Cl)Nc1ccc(Cl)cc1Cl	i
66	C=CCN1C(=O)C(O)(CC(=O)c2ccncc2)c2ccccc21 (stereo unspecified)	i
67	O=S(=O)(C(=CNc1cccc(Cl)c1)S(=O)(=O)c1ccccc1)c1ccccc1	i
68	CC(=O)Oc1c(C2=NN(C(C)=O)C(c3ccc(Cl)cc3Cl)C2)ccc2ccccc12 (stereo unspecified)	i
69	CCOc1ccc(NC(=O)NNC(=O)c2csc(C)c2CC)cc1	i
70	O=C(c1cccs1)N1CCN(C(=O)c2cccc3ccccc23)CC1	i
71	CCOC(=O)C1=C(C)NC(=O)NC1c1ccc(OCCc2ccccc2)c(OC)c1 (stereo unspecified)	i
72	Fc1ccc(-c2cc(C(F)(F)F)[nH]n2)cc1	2%
73	Cc1cccc(OCC(=O)Nc2ccccc2N2CCCCC2)c1	17%
74	COc1cccc(CNCc2ccccc2Cl)c1	i
75	COc1ccc2oc(-c3cccc(NC(=O)c4ccc(-c5cccc([N+](=O)[O-])c5)o4)c3)nc2c1	4%
76	COc1cc(OC)cc(C(=O)N2CCNCC2)c1	i
77	CC1CN(c2ccc([N+](=O)[O-])cc2)CCN1S(=O)(=O)Cc1ccccc1 (stereo unspecified)	i
78	Cc1cc(C)c(S(=O)(=O)N2CCN(CC(=O)Nc3cc(Cl)ccc3Cl)CC2)c(C)c1	i
79	CC(C)(C)C(=O)c1sc(Nc2ccccc2)nc1N	7%
80	COC(=O)c1ccc(C(=O)OC)c(NC(=O)c2ccc(I)cc2)c1	i

# Three entries already listed, arranged by molar mass, falling.
no.	Molecule	Mtb growth
75	COc1ccc2oc(-c3cccc(NC(=O)c4ccc(-c5cccc([N+](=O)[O-])c5)o4)c3)nc2c1	4%
77	CC1CN(c2ccc([N+](=O)[O-])cc2)CCN1S(=O)(=O)Cc1ccccc1 (stereo unspecified)	i
64	COC(=O)CSc1nc(N2CCCCC2)c2c(c1C#N)CCCC2	0.17µg/mL*

# (further entries)
no.	Molecule	Mtb growth
81	Cc1cc(Br)ccc1OCCCCN1CCNCC1	i
82	CCOC(=O)c1c(NC(=O)CCSc2nnc(C)s2)sc2c1CCCC2	i
83	CCOc1ccccc1NC(=O)c1cc(-c2ccc(C)s2)nc2ccccc12	13%
84	O=C1CCCCC1Oc1ccc2c3c(c(=O)oc2c1)CCCCC3 (stereo unspecified)	4%
85	O=C(Nc1nc2nccc(-c3ccccc3)n2n1)c1ccc(F)cc1	0%
86	Cc1cccc(N2CCN(CC(=O)Nc3ccc(S(=O)(=O)N4CCOCC4)cc3)CC2)c1C	4%
87	Cc1ccc(Nc2ncc(C(=O)Nc3ccccc3C)c(C)n2)cc1	i
88	Cc1cc(Br)ccc1OCC(=O)Nc1ccccc1C(=O)Nc1ccccc1	i
89	Cc1ccc(C(=O)N2CCN(c3ccc(NC(=O)c4sc5ccccc5c4Cl)cc3)CC2)cc1	2%
90	CCCC(CCC)C(=O)Nc1ccc2c(c1)N(C(=O)CN1CCN(C)CC1)c1ccccc1CC2	3%
91	CC(C)(c1ccccc1)c1ccc(OCCCN2CCOCC2)cc1	i
92	COc1cc(NC(=O)C(C)Oc2ccc(Br)cc2)c(OC)cc1Cl (stereo unspecified)	i
93	COc1ccc(S(=O)(=O)N(C)c2ccc(C(=O)NCCC3=CCCCC3)cc2)cc1OC	5%
94	Cc1cc(C2C(C#N)=C(N)SC(N)=C2C#N)c(C)s1	i
95	CS(=O)(=O)N(CC(=O)NCCSCc1cccc(Cl)c1)c1ccc2c(c1)OCO2	i
96	Cc1ccc(S(=O)(=O)N2CCN(c3ccc(C(F)(F)F)cc3[N+](=O)[O-])CC2C)cc1 (stereo unspecified)	24%
97	CCOc1ccc(C(=O)Nc2nc(C)cc(C)n2)cc1Br	i
98	CCc1cccc(CC)c1NC(=O)C1c2ccccc2Oc2ccccc21	i
99	N#Cc1c(NC(=O)c2cc(-c3ccccc3)on2)sc2c1CCCC2	1%
100	COc1cc2c(cc1/C=C/[N+](=O)[O-])OC(C)C2 (stereo unspecified)	26%

# Later entries.
no.	Molecule	Mtb growth
101	COc1ccccc1-c1nn2c(-c3ccncc3)nnc2s1	i
102	O=C(CC1(O)C(=O)N(CCc2ccccc2)c2ccc(Br)cc21)c1cccnc1 (stereo unspecified)	i
103	COc1ccc(N2CCN(C(=O)CSCc3c(F)cccc3Cl)CC2)cc1	i
104	CN(C(=O)C1CCCCC1)c1ccccc1C(=O)NCCc1ccccc1	i
105	O=C(COc1ccccc1)Nc1cc2ccccc2cc1NC(=O)COc1ccccc1	i
106	CCc1c(C)c2ccc(OCc3ccccc3OC)cc2oc1=O	7%
107	CN(C)c1ccc(C(=O)NNC2CC(=O)N(c3ccc(F)cc3)C2=O)cc1 (stereo unspecified)	i
108	N/C(=N\OC(=O)C12CC3CC(CC(C3)C1)C2)c1cccnc1	i
109	COc1ccc(C(=O)Nc2ccc(-c3nc4ncccc4o3)cc2)cc1Cl	3%
110	CN1CCc2nc(SCCOc3ccccc3)c(C#N)cc2C1	43%
111	Cc1ccc([N+](=O)[O-])cc1NC(=O)C(C)Oc1cccc(C)c1C (stereo unspecified)	2%
112	Cc1cc(Nc2ccc(C(=O)O)cc2)c2cccc(Br)c2n1	i
113	CCNC(=O)c1c(NC(=O)C(C(C)C)N2C(=O)c3ccccc3C2=O)sc2c1CCCC2 (stereo unspecified)	i
114	Cc1cc(Br)cc(C)c1OCCOCCN1CCC(C)CC1	7%
115	COC(=O)c1ccc(NC(=O)C2CCCN2S(=O)(=O)c2ccc(OC)cc2)cc1 (stereo unspecified)	i
116	O=C(Cc1ccccc1)Nc1ccc(Cl)cc1C(=O)c1ccccc1	2%
117	C=CCn1c(SCC(=O)Nc2ccccc2C(C)C)nnc1-c1ccc(Br)cc1	i
118	CCCC1=NN(c2cccc(C(=O)O)c2)C(=O)C1	i
119	COc1cc(CCN2C(=O)c3cccc4cccc(c34)C2=O)c(S(=O)(=O)NCC2CCCO2)cc1OC (stereo unspecified)	i
120	COc1ccccc1CNC(=O)C(=O)Nc1ccccc1F	i

# Later entries:
no.	Molecule	Mtb growth
121	Cc1cc(C)cc(OCC(=O)c2ccc(Br)cc2)c1	6.8µg/mL*
122	O=C(O)c1ccc(NC(=O)c2cn(-c3ccccc3)nc2-c2ccccc2)cc1	i
123	CCC(=O)N1CCN(c2ccccc2NC(=O)c2cc(I)ccc2Cl)CC1	2%
124	CC(=O)Nc1ccc(C(=O)Nc2ccc(S(=O)(=O)NC(C)(C)C)cc2)cc1	2%
125	CCOC(=O)N1CCN(C(=S)NCCc2ccccc2)CC1	i
126	Cc1cc(C)nc(NS(=O)(=O)c2ccc(NC(=O)C3C4C=CC(C4)C3C(=O)O)cc2)n1 (stereo unspecified)	i
127	CC(C)(C)c1ccc(C(=O)CSc2ncn[nH]2)cc1	0%
128	COc1ccc(CCNC(=S)NNC(=O)Cc2cccs2)cc1OC	i
129	O=C(Nc1ccccc1)C1CC2CCC1C2 (stereo unspecified)	i
130	Cn1c(COc2ccccc2Cl)nnc1SCC(=O)Nc1ccc(Br)cc1F	i
131	Cc1cc(C(=O)Nc2nc(C(C)(C)C)cs2)cs1	14%
132	CCc1ccccc1NC(=O)c1ccc(N(Cc2ccc(C)cc2)S(C)(=O)=O)cc1	i
133	COc1cc(NC(=S)NC(=O)c2cc3ccccc3cc2OC)ccc1NC(=O)C(C)C	4%
134	O=C(CN1C(=O)c2ccccc2S1(=O)=O)NC1CCCC1	i

# Source: PubChem BioAssay (Southern Research Institute)

# The list is partial; count on the stated rates, not on these rows.
